Measles inh: inhibitors of measles virus growth in infected cells; z-score (concentration not given with the values); AID 745; infected Vero cells, GFP fluorescence, 64 h; stronger effect = lower value; 0.1% of 33,000 active;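 active = z-score under -3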;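 note: score is relative to mean and SD of the compound wells of a plate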
* marks the source's active call; other numbers are inactive results. Only part of the results is shown; rates above refer to the full screens.

The first 17 records as a preview:
SMILES | Measles inh
COc1ccc(C2C(C(=O)NCc3ccc(F)cc3)CC(=O)N2c2ccc(OC)cc2)cc1 (centres undefined) | 1.5
COCc1cccc(N2C(=O)CC(C3C=C(C)C4C(=O)N(c5cccc(COC)c5)C(=O)C4C3)C2=O)c1 (centres undefined) | 0.4
O=C1CC(c2ccc3ccccc3c2)c2ccc3ccccc3c2N1 (centres undefined) | 0.62
O=C(c1cc2c(=O)[nH]c3ccccc3c2s1)N1CCCC1 | -0.01
OC(c1ccccc1)c1n[nH]c(=S)n1-c1ccccc1 (centres undefined) | -0.58
Cc1nnc(NC(=O)CSc2nc3c(c(=O)n2-c2ccc(F)cc2)SCC3)s1 | 0.07
COc1nsc(Br)c1C#N | -0.86
COc1ccccc1-n1nc(C(=O)N2CCC(Cc3ccccc3)CC2)c2ccccc2c1=O | -0.83
O=C(c1ccc(N2CCCCCC2)c([N+](=O)[O-])c1)N1CCCC1 | -1.1
Cc1ccccc1NCc1cccc([N+](=O)[O-])c1 | 0.03
O=C(NCCCN1CCCC1=O)c1ccc2c(=O)n(CC3CCCO3)c(=S)[nH]c2c1 (centres undefined) | -0.22
CCCCOCC1CN(c2ccccc2)C(=O)CS1 (centres undefined) | -0.06
CC1NC(=O)N(C)C2NC(=O)N(C)C(C)C12 (centres undefined) | 0.74
CCN1C(=O)C2C3c4ccccc4C(C(=O)O)(c4ccccc43)C2C1=O (centres undefined) | -0.42
CN(C)CCCN1C(=O)C(=O)/C(=C(/O)c2ccccc2)C1c1ccncc1 (centres undefined) | 0.03
O=C(CSc1nc2c([nH]c3ccccc32)c(=O)n1-c1ccc(Cl)cc1)NCc1ccccc1 | 0.96
COc1ccc(C=Nc2ccc(N(C)C(C)=O)cc2)cc1 | -0.36

Results, from the start:
SMILES | Measles inh
COc1ccc(C2C(C(=O)NCc3ccc(F)cc3)CC(=O)N2c2ccc(OC)cc2)cc1 (centres undefined) | 1.5
COCc1cccc(N2C(=O)CC(C3C=C(C)C4C(=O)N(c5cccc(COC)c5)C(=O)C4C3)C2=O)c1 (centres undefined) | 0.4
O=C1CC(c2ccc3ccccc3c2)c2ccc3ccccc3c2N1 (centres undefined) | 0.62
O=C(c1cc2c(=O)[nH]c3ccccc3c2s1)N1CCCC1 | -0.01
OC(c1ccccc1)c1n[nH]c(=S)n1-c1ccccc1 (centres undefined) | -0.58
Cc1nnc(NC(=O)CSc2nc3c(c(=O)n2-c2ccc(F)cc2)SCC3)s1 | 0.07
COc1nsc(Br)c1C#N | -0.86
COc1ccccc1-n1nc(C(=O)N2CCC(Cc3ccccc3)CC2)c2ccccc2c1=O | -0.83
O=C(c1ccc(N2CCCCCC2)c([N+](=O)[O-])c1)N1CCCC1 | -1.1
Cc1ccccc1NCc1cccc([N+](=O)[O-])c1 | 0.03

Three structures from above, sorted by formula weight, largest number first:
SMILES | Measles inh
COc1ccccc1-n1nc(C(=O)N2CCC(Cc3ccccc3)CC2)c2ccccc2c1=O | -0.83
O=C(c1ccc(N2CCCCCC2)c([N+](=O)[O-])c1)N1CCCC1 | -1.1
Cc1ccccc1NCc1cccc([N+](=O)[O-])c1 | 0.03

Going on with the list.
SMILES | Measles inh
O=C(NCCCN1CCCC1=O)c1ccc2c(=O)n(CC3CCCO3)c(=S)[nH]c2c1 (centres undefined) | -0.22
CCCCOCC1CN(c2ccccc2)C(=O)CS1 (centres undefined) | -0.06
CC1NC(=O)N(C)C2NC(=O)N(C)C(C)C12 (centres undefined) | 0.74
CCN1C(=O)C2C3c4ccccc4C(C(=O)O)(c4ccccc43)C2C1=O (centres undefined) | -0.42
CN(C)CCCN1C(=O)C(=O)/C(=C(/O)c2ccccc2)C1c1ccncc1 (centres undefined) | 0.03
O=C(CSc1nc2c([nH]c3ccccc32)c(=O)n1-c1ccc(Cl)cc1)NCc1ccccc1 | 0.96
COc1ccc(C=Nc2ccc(N(C)C(C)=O)cc2)cc1 | -0.36
CCN(CC)C(=O)c1sc2ncn(CC(=O)Nc3cccc(C(F)(F)F)c3)c(=O)c2c1C | -0.91
CCOC(=O)C1(C)C(=O)OC(c2ccc(Br)cc2)C(C)(C)C1=O (centres undefined) | 0.02
COc1ccc(NC(=O)C2CCC(CNS(=O)(=O)c3ccc(Br)s3)CC2)c(OC)c1 (centres undefined) | -0.61
CC(C)CNC1=CC(=O)CC(c2ccco2)C1 (centres undefined) | 0.26
CCCCN(C)Cc1c(O)ccc2c(=O)c(Oc3ccc(CC)cc3)c(C(F)(F)F)oc12 | -0.69
C=CCOC(=O)c1[nH]c2c(c1C)C(=O)CC(c1cccs1)C2 (centres undefined) | 1.9
COC(=O)C1=CN(C(C)C)C=C(C(=O)OC)C1c1ccc(C)s1 | -0.42
CC(=O)c1ccc(NC(=O)c2cnn3c(C(F)(F)F)cc(-c4ccc(Br)cc4)nc23)cc1 | 1.6
CCC(=O)N1CCc2cc(S(=O)(=O)N(c3cccnc3)S(=O)(=O)c3ccc4c(c3)CCN4C(=O)CC)ccc21 | -1.2
COc1ccc(OC)c(NC(=O)c2sc3nc(C)nc(N4CCC(C)CC4)c3c2C)c1 | -0.4
Cn1cc(CC(=O)NCCCN2CCOCC2)c2ccccc21 | -0.56
O=C(CNC(=O)Cn1cnc2ccccc2c1=O)NCc1ccco1 | -1.2
CC(=O)c1ccc(OCC(O)CN2CCN(c3ccc(F)cc3)CC2)cc1 (centres undefined) | -0.98
Cc1cc([N+](=O)[O-])nn1CCCC(=O)Nc1cc(Oc2ccc3c(c2)CCC3)cc([N+](=O)[O-])c1 | 0.33
N#Cc1cc2c(nc1S(=O)Cc1ccc(Cl)cc1)CCCC2 (centres undefined) | 2.2
Clc1ccc(-c2nc3ncccn3c2Nc2ccc3c(c2)OCCO3)cc1 | 0.76
O=C(c1ccccc1Br)N1CCC(Cc2ccccc2)CC1 | 0.15
CCOc1ccc(NC(=O)CSc2nnc3scc(-c4ccccc4)n23)cc1 | -0.89
CCCN(CCC)S(=O)(=O)c1ccc(C(=O)N2CC(=O)Nc3ccc(Cl)cc3C2c2ccccc2)cc1 (centres undefined) | -0.49
COc1ccc(C2CC(=O)C3=C(C2)NC(C)=C(C(=O)OCC(C)C)C3c2cc3c(cc2Cl)OCO3)cc1 (centres undefined) | -0.62
Cc1ccc(C)c(NC(=O)CSc2c[nH]c3ccccc23)c1 | 0.44
COc1ccccc1Oc1c(F)c(F)nc(N2CCCC2)c1F | 0.88
CC1=NC(C(F)(F)F)(C(F)(F)F)c2c(n(Cc3ccccc3)c(=O)[nH]c2=O)N1 | -0.78
Cc1nnc(SCC(=O)Nc2ccc3ccccc3c2)s1 | 0.41
Cn1nc(-c2ccc(N3CCCCC3)c(NC(=O)COc3ccccc3)c2)c2ccccc2c1=O | -0.57
Cc1ccc(-c2csc3[nH]c(=S)n(-c4ccccc4)c(=O)c23)cc1C | -1.4
CC1CCC(NC(=O)c2ccc3c(c2)NC(=O)CS3)CC1 (centres undefined) | 0.05
COc1ccc(Nc2ccc(N3C(=O)C4CC=CCC4C3=O)cc2[N+](=O)[O-])cc1OC (centres undefined) | -0.81
O=C(Nc1cc(C(=O)N2CCN(c3ccccc3Cl)CC2)ccc1N1CC2CC(C1)c1cccc(=O)n1C2)c1ccc(Br)o1 (centres undefined) | -0.9
CCc1ccc(-c2csc(NC(=O)c3ccc(S(=O)(=O)N4CCCCC4)cc3)n2)cc1 | -0.54
Cn1nc(CC(=O)Nc2ccc3c(c2)OCO3)c2ccccc2c1=O | -0.48
O=C(CCc1ccccc1)Nc1ccc(-c2nc3cc4ccccc4cc3[nH]2)cc1 | -0.85
Cc1cc(C(=O)NCCC2=CCCCC2)c2ccccc2n1 | 0.59
CC1CCc2c(sc3[nH]c(=S)[nH]c(=O)c23)C1 (centres undefined) | 0.38
Cc1c(C(=O)N2CCN(c3ccccc3F)CC2)sc2ncn(CC(=O)N3CC(C)CC(C)C3)c(=O)c12 (centres undefined) | 0.97
COc1cccc(N2C(=O)Nc3ccccc3C2(O)C(=O)NCc2ccccc2Cl)c1 (centres undefined) | -0.11
COC(=O)CSc1nnc2n(-c3ccccc3)c(=O)c3c4c(sc3n12)COC(C(C)C)C4 (centres undefined) | 1.6
O=c1[nH]c(=O)n(Cc2ccccc2)c2c1C(C(F)(F)F)(C(F)(F)F)N=C(c1ccco1)N2 | 1.8
CN(C)c1nc2n(c(=O)n1)CCS2 | 0.34
CCN(c1cccc(C)c1)c1ncnc2c1cnn2-c1ccc(C)cc1C | 0.62
Cc1c(C(=O)OCC(C)C)[nH]c2c1C(=O)CCC2 | -0.45
COC(=O)Cn1c(C(F)(F)F)nc2ccccc21 | -0.29
CC1=C(C(=O)OCc2ccccc2)C(c2ccccc2Br)C2=C(CC(c3ccccc3)CC2=O)N1 (centres undefined) | -0.23

Further results:
SMILES | Measles inh
CC(C)=C1C2C=CC1C1C(=O)N(c3ccc(C)c(C)c3)C(=O)C21 (centres undefined) | -0.65
Cc1sc2ncnc(SCC(=O)c3ccc(F)cc3)c2c1C | -0.43
CCC(=O)N1c2ccccc2-c2nnc(SC)nc2OC1c1ccccc1Br (centres undefined) | 1
O=C1NC(c2ccccc2)C(C(=O)c2ccccc2)=C1Nc1ccc(Br)cc1 (centres undefined) | 0.41
CC(C)(C)C1CCc2c(sc(NC(=O)c3cc4n(n3)C(C(F)(F)F)CC(c3ccco3)N4)c2C(N)=O)C1 (centres undefined) | 0.28
Cc1cc(=O)n2ccsc2n1 | -0.66
CCN1C(=O)CC(C(=O)Nc2ccccc2)SC1=Nc1ccccc1 (centres undefined) | -0.24
c1cncc(-c2noc(COc3cccc4ccccc34)n2)c1 | 1.4
Cc1ccc(S(=O)(=O)CCC(=O)Nc2ccc(Cl)c(C(F)(F)F)c2)cc1 | -0.14
CCOC(=O)C1C(C)=NC(=O)NC1C=Cc1ccccc1 (centres undefined) | -0.14
CN(C)c1ccc(C2(c3ccc(N(C)C)cc3)OC(=O)c3ccccc32)cc1 | 0.09
CCCCOc1ccc(-c2cc(C(=O)OC)c3ccccc3n2)cc1 | 1.3
COc1ccc(Cl)cc1NC(=O)C1c2ccccc2C(=O)N(C)C1c1cccs1 (centres undefined) | 0
Cc1c(C)c2ccc(OCC(N)=O)cc2oc1=O | 0.36
Cc1ccc(NC(=O)c2c(-n3c(C)ccc3C)sc3c2CCCC3)cc1 | -1.2
COc1ccc(OCC(=O)NCCSc2ccccn2)cc1 | -0.3
O=C(O)CCCCCN1C(=O)CSC1=S | -0.94
Cc1cccc(CC(=O)N2CC(=O)Nc3ccc(F)cc3C2c2ccc(F)cc2)c1 (centres undefined) | -1.7
COc1cc2c(=O)n(-c3ccc(C)cc3)c(=O)n(CC(=O)Nc3ccccc3)c2cc1OC | -0.43
CCCC1=C(C(=O)OCC)C(c2ccccc2Cl)NC(=O)N1C (centres undefined) | 1.4
Cn1c(SCC(=O)c2ccc(Cl)cc2)nc2c1c(=O)[nH]c(=O)n2C | -0.11
COc1ccc2nc3sc(C(=O)N4CCN(C)CC4)cc3cc2c1 | 0.65
COc1cc2[nH]c(=S)nc(NCCCN3CCCC3=O)c2cc1OC | 0.31
O=C(c1ccc(SCc2cccnc2)c([N+](=O)[O-])c1)N1CCc2ccccc21 | 0.14
O=C1c2cccc3cccc(c23)C(=O)N1CC1CCN(CC(O)COCc2ccc3c(c2)OCO3)CC1 (centres undefined) | -0.14
Cc1sc2ncn(CC(=O)NC3CCCCC3)c(=O)c2c1S(=O)(=O)N1CCC(C)CC1 | -1.4
CCOc1ccccc1CN(CCc1ccc2c(c1)OCO2)Cc1cccnc1 | -1.2
O=C(Nc1cccc(O)c1)c1ccc([N+](=O)[O-])cc1Cl | -0.58
O=C1c2ccc([N+](=O)[O-])cc2C(=O)N1C1C(=O)N(c2ccc(Br)cc2)C1c1ccc2c(c1)OCO2 (centres undefined) | 0.3
COc1ccc(CN2CCN(Cc3cc(Br)ccc3OC)CC2)cc1 | 0.24
O=C(CNc1ccccc1-c1nc2ccccc2[nH]c1=O)NCc1ccc(F)cc1 | -0.42
CC(C)(C)C(=O)Nc1ccc(Cl)cc1C(=O)O | 0.18
O=C(Nc1ccc2c(c1)OCO2)c1nn2c(C(F)(F)F)cc(-c3ccccc3)nc2c1Br | 0.16
CCOc1ccc2c(=O)c(-c3ccc(F)cc3)c(C)oc2c1 | -0.66
O=C(Nc1ccc2oc(-c3ccccc3)nc2c1)c1ccc2ccccc2c1 | -0.27
CCC(Sc1nc2c(c(=O)n1-c1ccccc1)SCC2)C(=O)OC (centres undefined) | -0.08
COc1cc2c(cc1OC)C(C(=O)N1CC(C)CC(C)C1)C(c1cccs1)N(C)C2=O (centres undefined) | 0.34
CCOCCCNC(=O)c1cnn2c(C)c3c(nc12)CCCC3 | 0.44
COC(=O)c1ccc(N2C(=O)CC(N3CCC(C(N)=O)CC3)C2=O)cc1 (centres undefined) | 1.4
CCOC(=O)c1cnc2[nH]c3ccccc3n2c1=O | -1.2
CC(C)c1ccccc1OCC(=O)Nc1nccs1 | 1.1
CC(Oc1ccc(F)cc1)C(=O)Nc1sc2c(c1C(N)=O)CCC2 (centres undefined) | 0.13
COc1ccc(-c2csc(Nc3ccc(C)cn3)n2)cc1C | -0.66
COc1cccc(C(=O)Nc2c3c(nn2-c2ccc(F)cc2)CSC3)c1OC | 1
CCCC(=O)NC(c1cccc([N+](=O)[O-])c1)c1ccc2cccnc2c1O (centres undefined) | -0.18
COc1cc2c(cc1OC)C(C(=O)N1CCC(C(N)=O)CC1)C(c1cccs1)N(C)C2=O (centres undefined) | -0.42
CCCCN(C)C(=O)c1sc2ncn(C)c(=O)c2c1C | 0.8
O=C(c1nn2c(c1Cl)NC(c1ccccc1)CC2C(F)(F)F)N1CCOCC1 (centres undefined) | -0.14
c1ccc(CSc2nnc(-c3cccnc3)n2Cc2ccccc2)cc1 | -0.68
Cc1ccc(-c2nnc(NC(=O)c3ccc(Cl)c([N+](=O)[O-])c3)s2)cc1 | -0.73

Following part
SMILES | Measles inh
CC(C)c1ccc2oc(-c3ccc(NC(=O)Cc4ccccc4)cc3)nc2c1 | -0.55
O=C(CSc1nnc(-c2ccccc2)c(-c2ccccc2)n1)N1CCOCC1 | -1
COc1ccc(S(=O)(=O)CCC(=O)NCc2ccccc2OC)cc1 | 1.3
Cc1sc2c(c1C)c(=O)n(-c1ccccc1)c(=O)n2CC(=O)N1CCC(C)CC1 | -0.23
Nc1ccc(C(=O)NCc2ccccn2)cc1[N+](=O)[O-] | -0.79
COc1ccc(CNCC2OCCc3ccccc32)cc1OC (centres undefined) | 0.86
CCOc1ccccc1NC(=O)c1cc2ccccc2oc1=O | 0.38
